# Hsc70 – Hsc70 inhibitors, probe displacement, primary screen, biochemical, fluorescence polarization (AID 568); Hsc70 fluorescence polarization, probe displacement; higher % means a stronger effect; strong numbers were not always called active; 83,000 tested, under 10 active; displacement, % at 20 µM, or IC50 in µM where a hit was titrated;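 active = displacement above 50% without optical interference and an IC50 on retest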;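 also: ATPase domain with a fluorescein-tagged ATP probe; 0% = vehicle and 100% = excess ADP; read after one hour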
# WNV protease inh – inhibitors of West Nile virus NS2B-NS3 protease. P06935. WNV NS2B-NS3 protease, fluorogenic substrate Ex360/Em465; active compounds read low. z-score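 (tested at a level between 10 and 100 µM)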. 65,000 tested, 0.18% active. AID 577;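 active = z-score at -3 or under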;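 also: score is relative to mean and spread of the compound wells of a plate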
# Target sequence (P06935 1371-1501 limits assumed): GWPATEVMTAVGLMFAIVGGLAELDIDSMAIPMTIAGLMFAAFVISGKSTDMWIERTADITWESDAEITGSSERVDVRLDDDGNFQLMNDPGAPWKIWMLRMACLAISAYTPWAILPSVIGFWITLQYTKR
# Target sequence (P06935 1502-1679 limits assumed): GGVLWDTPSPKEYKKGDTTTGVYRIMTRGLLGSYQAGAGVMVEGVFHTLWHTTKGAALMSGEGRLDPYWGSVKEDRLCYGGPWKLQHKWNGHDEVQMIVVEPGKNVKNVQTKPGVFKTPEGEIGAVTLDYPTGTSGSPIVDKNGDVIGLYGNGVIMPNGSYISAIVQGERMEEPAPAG
# MT1-MMP promoter – MT1-MMP gene expression reporter suppression – cell-based, luciferase reporter, luminescence (AID 618) | MT1-MMP promoter luciferase reporter cells, luminescence | calls from a first round at 10 µM; hits with a dose series show EC50 in µM | 87,000 tested, 0.62% active;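 active = over half of the reporter light lost at 10 µM or EC50 under 50 µM; inactive = the rest and hits that failed the dose series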;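 also: actives suppress MT1-MMP promoter-driven transcription so potencies describe inhibitors; HT1080 fibrosarcoma cells; overnight exposure; toxic or luciferase-blocking compounds were not removed from the actives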
# * marks the source's active call; other numbers are inactive results; i = inactive; / = no result given.
SMILES | WNV protease inh | Hsc70 | MT1-MMP promoter
O=C(c1ccccc1)N(Cc1ccc2c(c1)OCO2)Cc1nc2ccccc2c(=O)[nH]1 | -1 | -1.0% | i
CC(C)(C)c1csc(NC(=O)c2ccc3nccnc3c2)n1 | / | 2.6% | i
COc1ccccc1N(CC(=O)NCC1CCCO1)C(=O)CNS(=O)(=O)c1ccc(C)cc1 (centres undefined) | / | 4.1% | i
CCC(C)(C)n1nnnc1C(c1ccncc1)N1CCN(c2cccc(OC)c2)CC1 (centres undefined) | -0.6 | -1.7% | i
CCOc1ccc(C2N(c3ccc(F)cc3)C(=O)C3CCCN32)cc1OC (centres undefined) | 0.75 | 1.6% | i
Cn1c(N2CCCCC2)nc2c1c(=O)[nH]c(=O)n2C | 0.65 | -7.6% | i
C=CCSc1nnc(CSc2nc3sc4c(c3c(=O)[nH]2)CCCC4)n1-c1ccccc1 | -0.44 | 1.3% | i
CCCc1nc2ccccc2c(=O)n1/N=C/c1ccccc1O | -0.42 | -3.7% | i
CCOC(=O)c1c(NC(=O)CSc2nnc(-c3ccccc3C)n2C)sc(C(C)=O)c1C | 1.4 | -17% | i
CCc1ccc(C(=O)CSc2n[nH]c(C)n2)cc1 | 0.66 | 3.4% | i
Cc1cccc(NC(=O)COc2ccc3oc4c(c3c2)CCCC4)n1 | / | -0.7% | i
C=CCOc1cccc(C2C(C(=O)c3ccco3)=C(O)C(=O)N2CCN2CCOCC2)c1 (centres undefined) | 0.7 | 2.2% | i
Cc1onc(-c2ccccc2Cl)c1C(=O)NCCn1ccc2ccccc21 | 0.45 | -0.3% | i
CN1CCN(C(=O)c2ccc(-c3nn(C)c(=O)c4ccccc34)cc2)CC1 | -1.4 | -6.3% | i
O=C(c1ccco1)N1CCN(c2cc(=O)n(C3CCCCC3)c(=O)[nH]2)CC1 | -0.58 | -0.7% | i

# (continued)
SMILES | WNV protease inh | Hsc70 | MT1-MMP promoter
O=C(c1cccc(S(=O)(=O)N2CCCCC2)c1)N1CCCCC1 | 0.07 | -0.8% | i
COc1cccc(NC(=O)C2CC(=O)N(C)C(=Nc3cccc(F)c3)S2)c1 (centres undefined) | -1.4 | 0.0% | i
CN=C1S/C(=C\c2cccn2-c2cccc(Br)c2)C(=O)N1C | / | -11% | i
CCN(CC)C(=O)c1sc2nc(N3CCOCC3)c3c(c2c1N)CCCC3 | / | 1.5% | i
CCOC(=O)c1ccc(NCn2c(=O)oc3ccccc32)cc1 | 0.25 | -8.6% | i
Cn1c(SCc2ccccc2F)nc2cccnc21 | 0.6 | -0.3% | i
COCc1[nH]nc2c1C(c1ccnc3ccccc13)C(C#N)=C(N)O2 (centres undefined) | 1.1 | -5.6% | i
Nc1cc(=O)[nH]c(=S)n1-c1cccc(C(F)(F)F)c1 | / | -1.2% | i
COc1ccc(N(C(=O)Cc2cccs2)C(C(=O)NC2CCCCC2)c2cccn2C)cc1 (centres undefined) | / | 5.0% | i
O=C1c2ccccc2C(=O)N1n1c(=O)[nH]c2ccccc2c1=O | -0.17 | 0.4% | i
O=C(CN1CCN(S(=O)(=O)c2ccc(Cl)cc2)CC1)Nc1ccc(F)cc1F | -0.23 | -4.2% | i
Cc1cc(CN2C(=O)c3ccccc3C2=O)on1 | 2.1 | -4.1% | i
COc1cc(NC(=O)C2CC(=O)NC3=C2C(=O)CCC3)cc(OC)c1 (centres undefined) | / | -0.3% | i
CCn1nc(C(=O)OCC(=O)N2c3ccccc3CC2C)c2ccccc2c1=O (centres undefined) | -0.58 | 3.8% | i
Cc1onc(-c2c(F)cccc2Cl)c1C(=O)NCc1ccccn1 | -0.35 | 3.6% | i

# The listing continues:
SMILES | WNV protease inh | Hsc70 | MT1-MMP promoter
CCCCNC(=O)OCC(CC)NC(=O)OCC(C)C (centres undefined) | / | -1.2% | i
CCC/C(O)=C1\C(=O)CC(C)(C)CC1=Nc1ccc(OC)cc1OC | -1.2 | -1.4% | 24µM*
COc1cccc(C2CC(=O)NC3=C2C(=O)CCC3)c1 (centres undefined) | 0.66 | 5.8% | i
COc1ccc(S(=O)(=O)NCC(c2cccnc2)N2CCN(c3ccccc3OC)CC2)cc1C (centres undefined) | 0.9 | -1.8% | i
O=C1C2=C(SCCS2)C(=O)N1c1ccccc1 | 2.1 | 1.0% | i
CCOc1nnnc2c1sc1nc(N3CCOCC3)c3c(c12)CC(C)(C)OC3 | -0.71 | 8.1% | i
Nc1cc(OC(=O)c2ccco2)nn1S(=O)(=O)c1ccc(F)cc1 | -11* | 3.6% | i
CCS(=O)(=O)Nc1ccc(-c2nnc(SCC(=O)OC)o2)cc1 | -0.42 | -2.7% | i
Cc1ccc(-c2cc(=O)[nH][nH]2)c(C)c1 | 1.5 | -0.2% | i
O=C1c2ccccc2C(Nc2ccc3c(c2)OCCO3)N1c1ccc(Cl)cn1 (centres undefined) | -0.61 | 0.4% | i
Cc1cc2c(c(=O)n1Cc1cccnc1)C(c1cccs1)C(C#N)=C(N)O2 (centres undefined) | / | 0.7% | i
CN1CCN(Cc2cc(=O)oc3cc4c(cc23)CCC4)CC1 | -0.14 | -2.6% | i
O=C(CC1CCCCC1)c1c(O)c2ccccc2oc1=O | 1.2 | 3.6% | i
O=C(NC1CCCCNC1=O)c1ccc(Cl)cc1 (centres undefined) | 0.06 | -3.3% | i
COc1ccccc1-n1cnc2cc(C(=O)NCc3ccco3)ccc21 | -0.18 | -1.5% | i

# 3 successive records from above:
SMILES | WNV protease inh | Hsc70 | MT1-MMP promoter
COc1ccc(S(=O)(=O)NCC(c2cccnc2)N2CCN(c3ccccc3OC)CC2)cc1C (centres undefined) | 0.9 | -1.8% | i
O=C1C2=C(SCCS2)C(=O)N1c1ccccc1 | 2.1 | 1.0% | i
CCOc1nnnc2c1sc1nc(N3CCOCC3)c3c(c12)CC(C)(C)OC3 | -0.71 | 8.1% | i

# More entries
SMILES | WNV protease inh | Hsc70 | MT1-MMP promoter
COc1ccc(C(=O)N2CCCC(c3nc(-c4cccs4)no3)C2)cc1OC (centres undefined) | -0.38 | 4.6% | i
Cc1ccc(C(=O)OCC(=O)Nc2sc3c(c2C#N)CCCCC3)cc1NC(=O)c1ccco1 | 2.5 | 0.2% | i
Cc1cc(NS(=O)(=O)c2ccccc2)n(-c2ccccc2)n1 | 0.3 | 0.2% | i
Cn1c(C(=O)N(Cc2ccccc2)Cc2ccccn2)cc2sccc21 | -1.1 | 4.1% | i
CS(=O)(=O)N1CCCC(C(=O)NCc2cccs2)C1 (centres undefined) | -0.2 | 3.2% | i
COc1ccc(CN2CNc3nc4ccccc4n3C2)cc1 | / | -5.2% | i
COC(=O)c1c(NC(=O)c2ccco2)sc(C(=O)N(C)C)c1C | / | -0.2% | i
Nc1c(-c2ccccc2)cnn1-c1ccc(C(=O)O)cc1 | / | -6.4% | i
O=C(CCN1CCc2ccccc2C(O)(c2ccccc2)C1)c1ccc2c(c1)OCCO2 (centres undefined) | / | 1.1% | i
CS(=O)(=O)N(CC(=O)N1CCN(c2cccc(Cl)c2)CC1)C1CCCCC1 | 0.4 | 6.5% | i
COc1ccc(N(CC(=O)Nc2ccccc2C(=O)NCCc2ccccc2)S(C)(=O)=O)cc1OC | / | 0.1% | i
C=CCN1C(=O)C2(/C(=C(\O)c3ccc4c(c3)OCCO4)C(=O)C(=O)N2CCCOC)c2ccccc21 (centres undefined) | -0.66 | 1.1% | i
COc1ccc(Cl)cc1NC(=O)c1ccco1 | 0.12 | 1.8% | i
O=C(c1cccn2c(=O)c3cc(Cl)ccc3nc12)N1CCOCC1 | 0.67 | 1.2% | i
Cc1ccc(C(=O)N2CCC(C(N)=O)CC2)cc1C | -0.59 | 2.7% | i

# More compounds follow.
SMILES | WNV protease inh | Hsc70 | MT1-MMP promoter
CN(C)c1ccc(CN(C(=O)COc2ccc(F)cc2)C2CCS(=O)(=O)C2)cc1 (centres undefined) | 0.33 | 3.8% | i
CCOC(=O)N1CCC(NC(=O)CCS(=O)(=O)c2ccc3c(c2)CCN3C(C)=O)CC1 | 0.68 | 3.1% | i
CCOC(=O)C(=O)Nc1ccccc1C(=O)NC(C)C | / | 3.6% | i
Cc1cccc(C)c1NC(=O)C1(N(Cc2ccco2)C(=O)c2ccccn2)CCCC1 | 0.16 | 5.6% | i
O=C(COC(=O)CNC(=O)C1CCCCC1)Nc1ccc(Cl)cn1 | -1.9 | 1.2% | i
COC(=O)C1CCN(C(=O)N2CCOCC2)CC1 | 1.6 | -4.6% | i
O=C(CSc1nnnn1C1CCCC1)Nc1ccc2c(c1)OCCO2 | 2.1 | 12% | i
Cc1ccc2c(c1)C1OCCC1C1N2C(=O)C2C(C(=O)O)C3C=CC21O3 (centres undefined) | -0.23 | 1.6% | i
CCOC(=O)C1CCN(c2c(N(C)Cc3ccco3)c(=O)c2=O)CC1 | 0.36 | -2.9% | i
Cc1ccc(C)c(CSc2nnc(-c3cccnc3)o2)c1 | -0.87 | 7.0% | i
Cc1ccc(N(CC(N)=O)C2SC(=O)N(Cc3cccc(C(=O)O)c3)C2=O)cc1 (centres undefined) | / | 0.4% | i
c1csc(-c2nn3c(Cn4cnc5ccccc54)nnc3s2)c1 | 0.3 | 0.3% | i
O=C(CN1CCOCC1)n1c2ccccc2c2ccccc21 | 0.29 | -12% | i
Cc1csc(NC(=O)c2ccc(S(=O)(=O)N(C)c3ccccc3)cc2)n1 | / | 0.9% | i
COc1cccc(C(=O)Oc2c(CN3CCOCC3)cc(Cl)c3cccnc23)c1 | / | 5.2% | i

# Further records follow.
SMILES | WNV protease inh | Hsc70 | MT1-MMP promoter
Cn1c(=O)[nH]c(=O)c2c1nc(NCCCn1ccnc1)n2CCOc1ccccc1 | 0.55 | -3.2% | i
COc1cc(OC)cc(C(=O)Nc2ncc3c(n2)CC(C)CC3=O)c1 (centres undefined) | 0.47 | 5.9% | i
COc1ccc(C)cc1NC(=O)c1cc2ccccc2o1 | -0.49 | 1.0% | i
CCN(CC(=O)Nc1c(C(=O)OC)[nH]c2ccc(C)cc12)c1ccc2c(c1)OCO2 | 1.2 | 2.5% | i
Cc1nn(CC(O)Cn2cnc3c2c(=O)n(C)c(=O)n3C)c(C)c1Br (centres undefined) | -0.72 | -4.6% | i
CC1=CC(C)(C)N2C(=O)C3(SCC(=O)N3c3ccc(O)cc3)c3cc(C)cc1c32 (centres undefined) | -1.4 | -3.5% | i
COc1ccc2[nH]c3c(N4CCN(Cc5ccc6c(c5)OCO6)CC4)ncnc3c2c1 | 0.74 | -8.0% | i
CC(C)OC(=O)CSc1nnc(-c2ccncc2)n1N | -1.5 | -8.7% | i
CSc1nc2cc(S(=O)(=O)N3CCOCC3)ccc2s1 | -0.44 | 1.9% | i
Cc1cc(C)nc(SCc2nnc(SCC(=O)Nc3ccc(C)c(C)c3)n2Cc2ccco2)n1 | -0.17 | -1.7% | i
NC(=O)c1c(N)sc(=S)n1CC1CCCO1 (centres undefined) | -0.52 | -12% | i
CCC(=O)Nc1c(C)nn(C(=O)CC)c1C | 0.34 | -3.6% | i
Cc1ccc2cc(C(=O)O)c(C)nc2c1 | / | 7.5% | i
CCOC(=O)C1=C(C)NC(C)=C(C(=O)OCC)C1 | -0.21 | 6.7% | i
CCCCCn1c(=NC(=O)c2ccco2)c(C(=O)OCC)cc2c(=O)n3ccccc3nc21 | 0.73 | 5.7% | i

# Carrying on.
SMILES | WNV protease inh | Hsc70 | MT1-MMP promoter
CCOc1cc(/C=N\NC(=O)Cn2nc([N+](=O)[O-])cc2C)ccc1OCc1cccc2ccccc12 | / | -9.0% | i
O=C(CSc1nc2c(c(C(F)(F)F)n1)CCc1ccccc1-2)NCc1ccco1 | -0.73 | -2.0% | i
CCCc1ccc(OCC(=O)O)cc1 | 0.16 | 0.2% | i
Cc1nc(-c2ccc3c(c2)OCO3)cs1 | -0.33 | 1.0% | i
Cc1noc(C)c1COc1cccc(C(=O)Oc2ccc3c(c2)OCO3)c1 | 0.83 | 4.1% | i
COc1ccc(S(=O)(=O)N(CCCN2CCCC2=O)Cc2cc3cc(C)c(C)cc3[nH]c2=O)cc1 | -0.44 | -2.8% | i
O=C(NCc1ccco1)c1nn(-c2ccccc2)c(=O)c2ccccc12 | -1.1 | -3.2% | i
Cc1cc(C)n(-c2nc3ccccc3nc2N2CCN(C(=O)c3ccc(F)cc3)CC2)n1 | -0.68 | 2.4% | i
N#Cc1c2n(c3c(=O)n(Cc4ccccc4)cnc13)CCCC2 | -1.4 | -3.6% | i
O=C(O)CSC1c2ccccc2C(=O)N1Cc1ccccc1 (centres undefined) | -0.41 | -6.6% | i
CCOc1ccc2ccccc2c1/C=N/n1cncn1 | 0.39 | 1.3% | i
O=C(Nc1ccc(-c2nc3ccccc3[nH]2)cc1)c1ccco1 | 1.4 | -7.1% | i
Cc1csc(NC(=O)c2nc3nc(C)cc(C)n3n2)n1 | -0.42 | -2.7% | i
CC(C)Oc1ccc(CNC2CCOC(C)(C)C2)cc1 (centres undefined) | -0.31 | 0.0% | i
CC(=O)NCCOC(=O)Nc1sc(=S)n(C)c1C | / | -6.1% | i
O=C(CSc1nnnn1-c1cccnc1)NCc1cccs1 | -0.73 | -1.9% | i
c1ccc(OCCCN2CCCC2)cc1 | / | -5.2% | i

# An excerpt of these results, with two lines to a compound:
# Order of values: WNV protease inh | Hsc70 | MT1-MMP promoter
> O=C(CSc1nnnn1-c1cccnc1)NCc1cccs1
  -0.73 | -1.9% | i
> CCCc1ccc(OCC(=O)O)cc1
  0.16 | 0.2% | i

# Screening data as filed in PubChem BioAssay.
